# Source: PubChem
# H5N1 antiviral: MDCK cell protection from H5N1 avian flu | cytopathic effect, luminescence, 72 h; hits give high values; no value below 0 was filed and about half of the inactive calls have no number; reference of the scale not given here | inhibition, % at 50 µM | 96,000 tested, 0.07% active | AID 740; in the data active = inhibition above about 25%
# * hit, by the source's call; i = inactive. This is a subset. The share of hits here may be higher or lower than overall.
SMILES,H5N1 antiviral
C=CCN1CCN(C(c2ccccc2)c2nnnn2CCC(C)C)CC1 (stereo not drawn),1.2
COc1cccc(CN(CC2CCCO2)S(=O)(=O)c2ccc(S(=O)(=O)N(C)C)cc2)c1 (stereo not drawn),0.7
O=C(Nc1cccnc1)C1(c2ccccc2)CCCC1,0.3
COc1ccc(-c2[nH]c(-c3ccc(C(=O)O)cc3)nc2-c2ccccc2)cc1,0.8
CN(C)C(=O)c1ccccc1-c1ccccc1,0.7
COc1ccc2c(C(=O)CN3CCN(c4ccccc4)CC3)c[nH]c2c1,i
CCC(C)NC(=O)CSc1nc2c(sc3ccccc32)c(=O)n1CCCN1CCOCC1 (stereo not drawn),0.8
CC(=O)N(/N=C/c1cccc(C)c1)c1nc(-c2ccc(Br)cc2)cs1,i
Cc1ccc(SC(C)C(=O)Nc2ccncc2)cc1 (stereo not drawn),1.2
Cc1noc(/C=C/N(C)C)c1S(=O)(=O)N1CCC(C(=O)O)CC1,0.8
COc1ccc(-c2nc3ccccc3[nH]2)cc1,i
CCN(CC(=O)Nc1ccc2c(c1)OCCO2)S(=O)(=O)c1cccs1,0.2
Cc1cc(OC(=O)c2ccco2)c2c(C)cc(=O)oc2c1,3.7
Cc1cccc(OCCC(=O)NCC(c2ccco2)N2CCCCC2)c1 (stereo not drawn),i
CC(C)(C)NC(=O)COC(=O)/C=C/c1ccccc1[N+](=O)[O-],i
O=C(O)CC1NC(=O)N(c2ccccc2)C1=O (stereo not drawn),0.7
COc1cccc(OCC(=O)NNC(=O)c2ccc(-c3ccccc3)cc2)c1,i
Cn1c(=O)oc2cc(S(=O)(=O)N3CCCC(C(=O)Nc4ccc5c(c4)OCCO5)C3)ccc21 (stereo not drawn),1.0
CC1CC(C)CN(C(=O)c2cn(C)c3ccc(S(=O)(=O)N(C)C)cc3c2=O)C1 (stereo not drawn),i
COc1ccc2cc(C(=O)NCc3ccco3)c(=Nc3ccc(C(=O)O)cc3)oc2c1,0.4
COc1ccc(C2/C(=C(/O)c3ccc4c(c3)CC(C)O4)C(=O)C(=O)N2CCN2CCOCC2)cc1 (stereo not drawn),0.2
COC(=O)c1ccc(C2/C(=C(/O)c3ccc(OC(C)C)cc3)C(=O)C(=O)N2c2cc(C)on2)cc1 (stereo not drawn),0.3
O=C(NCc1ccc2c(c1)OCO2)c1ccc(CN2CCOCC2)cc1,0.4
O=C(COc1cnc2ccccc2n1)NCCC1=CCCCC1,0.8
Cc1cc(C)c2[nH]c(=O)c(C(c3nnnn3C(C)(C)C)N3CCN(C(=O)c4ccco4)CC3)cc2c1 (stereo not drawn),0.9
CCOC(=O)c1cnn2c(C(F)(F)F)cc(-c3ccco3)nc12,4.4
Cc1c(CN(C)CCc2ccccc2)c(=O)n(-c2ccccc2)n1C,i
O=C(c1ccc(CS(=O)(=O)c2ccccc2)o1)N1CCN(c2ncccn2)CC1,3.1
C=CCc1ccc(OCCOCCNCCOC)c(OC)c1,i
CCS(=O)(=O)c1ccc2oc(Nc3ccc(C(C)C)cc3)nc2c1,i
COc1ccc(C2C(C#N)=C(N)Oc3n[nH]c(C)c32)cc1Cn1cc([N+](=O)[O-])cn1 (stereo not drawn),2.1
COCCCNC(=O)c1ccc2nc3ccccc3c(=O)n2c1,0.4
Cc1ccccc1OCCNC(=S)Nc1ccccc1,i
O=C(Nc1ccc2c(c1)OCO2)C1CCCN1C(=O)Nc1cccc(F)c1 (stereo not drawn),0.8
C=CCOc1ccc(/C(CC)=N/O)cc1OC,0.8
Cc1oc(-c2ccc(Cl)cc2)nc1CN1CCC(C(=O)NCc2cccs2)CC1,i
C=CCn1c(=O)c2c(nc3n2CC(C)CN3c2cccc(OC)c2)n(C)c1=O (stereo not drawn),3.4
O=C(CS(=O)(=O)Cc1ccccc1)NCc1ccc2c(c1)OCO2,i
Cc1ccc(N(CC(=O)N/N=C/c2ccco2)S(=O)(=O)c2ccccc2)cc1,4.7
COc1ccc(-c2ccc(-c3noc(C4CCCCC4)n3)c(OC)n2)cc1,i
O=C(O)c1ccccc1C(=O)N1CCN(c2cccc(Cl)c2)CC1,0.2
COc1ccc(C)cc1NC(=O)CN(c1ccc(F)cc1)S(C)(=O)=O,i
CCCCCCCCSc1nnc(-c2ccc(OC)cc2)o1,i
COc1ccc(-n2nnnc2SCC(=O)N2CCCC2)cc1OC,0.2
Cc1ccc(OCC(O)Cn2c(=N)n(CCN3CCOCC3)c3ccccc32)cc1 (stereo not drawn),i
CCN(CC)C(=O)CSC(=Nc1ccccc1F)NC#N,6.5
CN(Cc1ccccc1)C(=O)CCNC(=O)Cn1cnc2ccccc2c1=O,0.5
Cc1ccccc1Cc1c(C)nc2ncnn2c1C,0.7
FC(F)Oc1ccc(NC(=S)NCc2ccccc2)cc1Cl,i
O=C(Oc1ccc2c3c(c(=O)oc2c1)CCCC3)c1ccco1,0.0
O=C(CSc1cccc2cccnc12)OCC(=O)c1ccccc1,0.3
CCOCCCNC(=O)C(c1ccc(Cl)cc1)N1CCC2(CC1)OCCO2 (stereo not drawn),i
CCCC1C(C(=O)OCC)=C(C)NC(C)=C1C(=O)OCC,i
CCC/C(O)=C1\C(=O)CCCC1=NCCCCCC(=O)O,0.6
CCC(CC)NC(=O)c1cc(OC)c(OC)cc1[N+](=O)[O-],0.9
C=CCNC(=O)CN1CCC(n2c(C)nc3cc(C(F)(F)F)ccc32)CC1,0.8
COc1cccc(C2NC(=O)NC(C)=C2C(=O)Nc2ccc(C)cc2)c1 (stereo not drawn),0.7
O=C(NCc1ccco1)NC12CC3CC(CC(C3)C1)C2,0.8
Cc1ccc(NC(=O)c2ccc(S(=O)(=O)N3CCOCC3)cc2)nc1,i
CC1CCN(CC(O)COc2cccc(F)c2)CC1 (stereo not drawn),0.1

# Part of the list above, as labelled records.
FC(F)Oc1ccc(NC(=S)NCc2ccccc2)cc1Cl
  H5N1 antiviral: i
O=C(Oc1ccc2c3c(c(=O)oc2c1)CCCC3)c1ccco1
  H5N1 antiviral: 0.0
O=C(CSc1cccc2cccnc12)OCC(=O)c1ccccc1
  H5N1 antiviral: 0.3
CCOCCCNC(=O)C(c1ccc(Cl)cc1)N1CCC2(CC1)OCCO2 (stereo not drawn)
  H5N1 antiviral: i

# Remaining list, next part.
SMILES,H5N1 antiviral
COc1ccc(NC(=O)C2CCCN2C(=O)OCc2ccccc2)c(OC)c1 (stereo not drawn),i
Cc1ccc(S(=O)(=O)N(C)c2ccccc2)cc1,0.1
Clc1ccc(CSc2nnc(-c3ccccn3)n2Cc2ccco2)c(Cl)c1,i
CC(C)CNC(=O)CC(c1ccccc1)c1c(O)ccc2ccccc12 (stereo not drawn),1.0
C=CCNC(=O)/C(=C\C=C\c1ccccc1)NC(=O)c1ccc(OCCCC)cc1,i
Cc1cccc(C(=O)N2CCN(c3ccc([N+](=O)[O-])c(N4CCOCC4)c3)CC2)c1,i
COc1ccc(NC(=O)Nc2cc(C)ccc2OC)cc1,i
CCOc1cccc(=O)c2c(C)n(C)c(C)c12,0.6
CCCn1c(=O)c2ccccc2n2c(SCC(=O)c3ccc(CC)cc3)nnc12,i
CCNc1cc(N2CCN(S(=O)(=O)c3ccc4c(c3)CCCC4)CC2)ccc1[N+](=O)[O-],0.9
CC(NC(=O)CSc1nnc(CC(=O)Nc2ccc(Cl)c(Cl)c2)n1C)c1ccccc1 (stereo not drawn),i
Cc1ccc(NC(=O)CSCCc2ccccn2)nc1,0.3
Cc1cnn(CCC(=O)NNC(=S)Nc2cccc(Cl)c2)c1,i
COC(=O)c1ccc(NC(=O)CCc2c(C)nc3ncnn3c2C)cc1,1.2
Cc1nnc(NC(=O)CSc2nnc(Cc3cccn3C)n2-c2cccc(C(F)(F)F)c2)s1,0.8
CCc1cc(C(c2cccc(OC)c2)N2CCOCC2)c(NC(=O)c2ccccc2)s1 (stereo not drawn),i
N#CC1=C2SCN(c3ccccc3)CN2C(=O)CC1c1ccccc1Cl (stereo not drawn),1.2
CS(=O)(=O)c1nc(-c2ccco2)cc(C(F)(F)F)n1,i
O=C(CSc1ccc2nnc(-c3cccnc3)n2n1)NCc1ccc2c(c1)OCO2,1.7
O=[N+]([O-])c1cc(S(=O)(=O)C(F)(F)F)ccc1Sc1nc2ccccc2s1,i
C=C(C)CC1Nc2ccccc2NC1CC(=C)C (stereo not drawn),i
N#CCCN1CCn2c1nc1ccccc12,i
COc1cc(NS(=O)(=O)c2ccc(NC(C)=O)cc2)nc(OC)n1,i
O=C(O)CCC(=O)NNC(=O)CCC(=O)NCc1ccccc1,0.5
COC(=O)c1ccccc1NC(=O)Cn1c(SC)c(F)cnc1=O,2.2
Cc1c(Br)cc(C(=O)OC2CCN(C)CC2)c(C)c1C,i
COC(=O)CN1C(=O)C(O)(CC(=O)c2cccc(Br)c2)c2ccccc21 (stereo not drawn),i
COc1cccc(-c2nc(CS(=O)(=O)CC(=O)N3CCN(c4ccccn4)CC3)c(C)o2)c1,0.2
COc1ccc(Oc2nc3c(c(=O)n(C)c(=O)n3C)n2Cc2ccccc2)cc1,1.0
Cc1noc(/C=C/N(C)C)c1S(=O)(=O)N1CCc2ccccc21,i
C=CCn1c(SCC(=O)NC2CCCC2)nc2scc(-c3ccco3)c2c1=O,i
CCCCC1(C)Cc2ccccc2C(=S)N1 (stereo not drawn),1.0
CC(Nc1ccccc1)C(=O)Nc1ccc(F)cc1 (stereo not drawn),i
CC1CCCN(C(=O)Nc2cccc(NC(=O)N3CCCC(C)C3C)c2)C1C (stereo not drawn),0.1
COc1ccc(S(=O)(=O)N2CCCC2C(=O)Nc2ccc(O)cc2)cc1 (stereo not drawn),i
CCOc1ccc(C(=O)NC2CCN(S(C)(=O)=O)CC2)cc1,0.3
Clc1ccc(-n2cnnn2)cc1,i
O=C(CSc1nnc([C@@H]2CCCN2)o1)c1ccc(Cl)cc1,i
CCN1CCN(Cc2cc(Br)cc(OC)c2O)CC1,0.7
Cc1[nH]ccc(=O)c1OCc1ccc(Cl)cc1,0.1
Cc1ccccc1N1CCN(CCCN2C(=O)CC(=C(c3ccccc3)c3ccccc3)C2=O)CC1,i
COC(=O)c1cc(NC(=O)c2ccc(Cn3cc(Cl)cn3)o2)cc(C(=O)OC)c1,1.7
COc1ccccc1N(C(=O)c1snc(C(N)=O)c1N)C(C(=O)NCCC(C)C)c1ccco1 (stereo not drawn),i
O=C1CC(c2ccc3c(c2)OCO3)c2cc3c(cc2N1)OCO3 (stereo not drawn),0.6
COc1ccccc1-c1cc(C(=O)N/N=C/c2ccc(C)s2)c2ccccc2n1,i

# 6 records picked at random from the list so far:
SMILES,H5N1 antiviral
COc1ccccc1N(C(=O)c1snc(C(N)=O)c1N)C(C(=O)NCCC(C)C)c1ccco1 (stereo not drawn),i
O=C1CC(c2ccc3c(c2)OCO3)c2cc3c(cc2N1)OCO3 (stereo not drawn),0.6
O=C(CSc1nnc([C@@H]2CCCN2)o1)c1ccc(Cl)cc1,i
COc1ccccc1-c1cc(C(=O)N/N=C/c2ccc(C)s2)c2ccccc2n1,i
Cc1[nH]ccc(=O)c1OCc1ccc(Cl)cc1,0.1
COc1ccc(S(=O)(=O)N2CCCC2C(=O)Nc2ccc(O)cc2)cc1 (stereo not drawn),i

# More results
SMILES,H5N1 antiviral
COc1ccc(-c2cc3c(=O)n(CC(=O)NC4CCN(Cc5ccccc5)CC4)ncn3n2)cc1,0.1
CC1(C)N=C(c2cccc(F)c2)C(=O)N1,i
CCC(CO)NC(=O)c1cc2c(s1)CCC2 (stereo not drawn),0.8
O=c1oc2cc(OCc3nn[nH]n3)ccc2c2c1CCCC2,1.3
Cn1c(=O)c2[nH]c(NCC3CCCO3)nc2n(-c2ccccc2)c1=O (stereo not drawn),1.3
CC(NC(=O)c1ccc(F)cc1)c1ccccc1 (stereo not drawn),1.4
CCn1cc(/C=C/C(=O)NCc2c(C)nn(C)c2C)cn1,i
CC12CN3CC(C)(CN(C1)C3c1ccccc1Cl)C2O (stereo not drawn),i
Cc1onc(-c2ccccc2Cl)c1C(=O)N/N=C(\N)COc1ccc(Cl)cc1,4.1
Cc1ccc(-n2cc(-c3ccccc3)[nH]c2=O)cc1F,i
O=c1[nH]c(=O)n(Cc2ccccc2)c2c1CCC2,i
c1csc(C(c2nnnn2C2CCCC2)N2CCCC3(CCCCC3)C2)c1 (stereo not drawn),3.8
CCN1C(=O)CC(N2CCN(c3ccc(C(=O)c4ccccc4)cc3)CC2)C1=O (stereo not drawn),4.2
CCc1c(C(=O)NCCc2ccc(OC)c(OC)c2)[nH]c(C)c1C(C)=O,i
CCCN(CCC)C(=O)CP(=O)(c1ccccc1)c1ccccc1,0.3
CCOC(=O)C(Sc1ncn[nH]1)c1ccccc1 (stereo not drawn),i
COc1cc(-c2ncc3ccccn23)cc(OC)c1OC,0.3
CCNC(=S)N1CCN(CCN=CC2=C(O)CC(c3cccs3)CC2=O)CC1 (stereo not drawn),1.1
CCCC(=O)Nc1cc(-c2cn3cccnc3n2)ccc1OC,i
CCCCOc1ccc(N2C(=O)CC(N(O)c3ccccc3)C2=O)cc1 (stereo not drawn),i
O=C(c1ccccc1)n1ccc2ccccc21,i
Cc1cc(C)n2nc(SCc3cc(=O)oc4cc(C)c(C)cc34)nc2n1,2.2
O=C(Cn1c(=O)sc2ccccc21)NCc1ccco1,3.5
COc1ccc(N2C(N)=NC(N)=NC23CCCC3)cc1,0.4

# A few values from above.
# C=CCn1c(=O)c2c(nc3n2CC(C)CN3c2cccc(OC)c2)n(C)c1=O (stereo not drawn) in H5N1 antiviral has 3.4
# CC1CCN(CC(O)COc2cccc(F)c2)CC1 (stereo not drawn) in H5N1 antiviral has 0.1
# CCN(CC(=O)Nc1ccc2c(c1)OCCO2)S(=O)(=O)c1cccs1 in H5N1 antiviral has 0.2
